Screens deposited in PubChem BioAssay by National Center for Advancing Translational Sciences (NCATS).
ClpP mod – qHTS Assay for Activators of ClpP; ATP-dependent Clp protease proteolytic subunit (Bacillus subtilis (strain 168)), P80244; purified B. subtilis ClpP, FRET peptide cleavage, 20 min; Potency, µM (doses to about 57.5 µM), for the others: top-dose activity change, negative = active; actives 1.9% (n = 340,000); active = well fitted falling curve with a large enough effect; inconclusive = small, poorly fitted or top-dose-only effect; inactive = no such curve, though single readings can be large or run the other way; note: potency is the fitted concentration of half-maximal effect; the source files actives as falling curves though it sought activators and does not explain the sign; nearly all actives have a fitted effect of over 65% in size; many hits overshoot -100%
Target sequence (P80244 whole entry, looked up): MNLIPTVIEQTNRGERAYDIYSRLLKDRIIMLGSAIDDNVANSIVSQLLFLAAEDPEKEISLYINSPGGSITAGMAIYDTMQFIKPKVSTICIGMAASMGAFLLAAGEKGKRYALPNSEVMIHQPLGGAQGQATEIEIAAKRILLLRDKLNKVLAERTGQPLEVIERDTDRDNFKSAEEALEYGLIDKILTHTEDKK
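ClpP 10 microg/mL final, pH 8 Tris/KCl buffer with BSA, glycerol, Tween-20; compound pinned in; FRET-FV substrate; RT 20 min; Ex320/Em430; ΔFRET vs ADEP 5.8 microM, DMSO, no enzyme.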
TRPV1 potentiator – human TRPV1 potentiation; Q8NER1; TRPV1-expressing cells, Fluo-8 calcium influx, capsaicin EC20 potentiation; host cell line not named in the record; control for the full effect not named in the record; potentiation, % at 8.33 µM; actives 0.02% (n = 320,000); AID 540277; active means potentiation above 80%; inconclusive means 30% to 80%; inactive means below 30%; note: 0% is about no effect
Target sequence (Q8NER1 whole entry, looked up): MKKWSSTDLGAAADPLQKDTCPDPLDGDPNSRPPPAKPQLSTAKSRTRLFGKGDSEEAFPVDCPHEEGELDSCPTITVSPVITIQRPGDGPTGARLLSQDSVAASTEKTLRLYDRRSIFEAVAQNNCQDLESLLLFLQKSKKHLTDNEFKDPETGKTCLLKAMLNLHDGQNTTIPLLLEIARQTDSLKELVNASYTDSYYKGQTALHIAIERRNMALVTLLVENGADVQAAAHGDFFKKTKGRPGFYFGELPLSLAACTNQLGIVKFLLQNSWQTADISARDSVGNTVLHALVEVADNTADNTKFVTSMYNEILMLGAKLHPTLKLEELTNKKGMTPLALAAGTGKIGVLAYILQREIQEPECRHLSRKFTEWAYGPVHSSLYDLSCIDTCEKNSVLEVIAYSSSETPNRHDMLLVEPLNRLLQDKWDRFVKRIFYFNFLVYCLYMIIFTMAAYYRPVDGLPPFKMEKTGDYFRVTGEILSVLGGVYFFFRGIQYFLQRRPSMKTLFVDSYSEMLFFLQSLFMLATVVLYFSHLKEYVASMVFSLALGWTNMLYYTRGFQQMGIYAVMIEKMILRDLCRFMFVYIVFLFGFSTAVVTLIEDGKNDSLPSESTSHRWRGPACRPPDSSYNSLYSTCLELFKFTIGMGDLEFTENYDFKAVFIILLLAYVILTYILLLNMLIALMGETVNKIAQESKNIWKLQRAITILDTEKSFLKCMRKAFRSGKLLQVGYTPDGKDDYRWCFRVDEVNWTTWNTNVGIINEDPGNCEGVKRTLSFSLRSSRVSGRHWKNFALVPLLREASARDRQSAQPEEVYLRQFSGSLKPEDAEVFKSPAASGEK
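Cells expressing TRPV1 were dye-loaded with Fluo-8 and read kinetically: 10 s baseline, 3 min after compound (agonist portion), then 2 min after EC20 capsaicin (allosteric enhancer portion). Calcium-bound dye fluorescence at 480/520 nm.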
Sfp inh – blocks B. subtilis Sfp PPTase activity. Potency, µM, without a hit: max response, negative = inhibition, hits mostly inhibitors. Q9F4F7. AID 1490. Biochemical Sfp PPTase activity, qHTS. actives 3.5% (n = 310,000); active = well fitted inhibition curve with a large enough effect; inconclusive = small, poorly fitted or top-dose-only effect, or another doubt; inactive = no such curve, though single readings can be large or run the other way;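 note: the enzyme is Sfp with the accession as filed and its product quenches rhodamine fluorescence; potency is the fitted concentration of half-maximal effect; 0% = enzyme reaction without inhibitor and -100% = no enzyme wells; top concentration of the series not given in the record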
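Compounds were incubated with enzyme (final 15 nM) for 15 min at room temperature before substrate addition started the reaction. Fluorescence at 525 nm excitation, 598 nm emission was recorded immediately and after 30 minutes.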
CtBP-E1A blk – CtBP/E1A binding inhibition | AlphaScreen GST-E1A/His-CtBP binding, 1536-well; hits give low values; control for the full effect not named in the record | activity change, % (no concentration beside the values) | actives 0.49% (n = 340,000); in the data active means activity change below about -65%; inconclusive means about -30% to -65%; inactive means above about -30%; note: % is set by controls: 0 for no effect and ±100 for the full control effect; compound concentration not given in the record
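GST-E1A and His-tagged CtBP (125 nM each as 5X stock) were preincubated with pin-transferred compound for 2 h at 37 °C in the dark, then glutathione donor and nickel acceptor beads were added for 1 h before AlphaScreen reading.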
gsp agonist – agonists of gsp mutant (McCune-Albright syndrome) | gsp mutant cells, cAMP HTRF, 30 min; control for the full effect not named in the record | Potency, µM (highest dose often 76.9 µM), for inactives: at the highest dose activation (cAMP increase), actives largely listed as activators | actives 0.13% (n = 340,000) | AID 624287; active = well fitted activation curve with a large enough effect; inconclusive = small, poorly fitted or top-dose-only effect, or another doubt; inactive = no such curve, though single readings can be large or run the other way; cell line not stated here;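 note: phosphodiesterase inhibitor Ro 20-1724 added with compounds to block cAMP breakdown; potency is the fitted concentration of half-maximal effect; nearly all actives have a fitted effect of over 60% in size; about a fifth of the inactives were tested at one dose only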
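Cells stably selected in G418 were plated at 2000/well, grown 16-24 hr, then given compounds in DMSO with the PDE inhibitor […] (300 uM solution added) for 30 min at 37C; cAMP was read by HTRF.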
Menin MLL FP FL – displaces fluorescein MLL peptide from human menin; Fluorescence polarization, fluorescein-MLL peptide displacement from menin; FP activity change, % at 61.4 µM; 290,000 tested, under 10 active; AID 1766; inconclusive = falling polarisation curve, or a change in total fluorescence; inactive = total fluorescence flat and polarisation flat or rising; no compound was filed as active; the % refers to the polarisation; negative = inhibition;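 note: % of control where 0% means no effect; inhibitors lower the polarisation; unlabelled MLL peptide was the positive control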
gsp antag – antagonists of gsp mutant (McCune-Albright syndrome); Potency, µM (top dose mostly 76.9 µM), inactives show at the highest dose activity change, negative = inhibition, usual class: inhibitors; actives 0.4% (n = 340,000); gsp-mutant cells, cAMP HTRF, 30 min; control for the full effect not named in the record; active = falling curve of any shape with a large fitted effect; inconclusive = falling curve, mostly with a smaller effect; inactive = flat or rising curve; cell line not stated here;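 note: intracellular cAMP measured with PDE inhibitor Ro 20-1724 present during compound exposure; potency is the fitted concentration of half-maximal effect; % is set by controls: 0 for no effect and ±100 for the full control effect; nearly all actives have a fitted effect of over 65% in size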
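Measurement of cellular cAMP by homogeneous time-resolved fluorescence following a 30 min compound exposure at 37C. The PDE inhibitor […] was present throughout; the assay buffer was DPBS with 0.05% BSA and 0.005% Tween 20.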
Active calls of the source: *; [ ] = another dose, or the depositor's remark.

Screening CCOc1ccc(NC(=O)CCN2C(=O)c3ccccc3C2=O)cc1 returned ClpP mod -0.5%, TRPV1 potentiator 0.9, Sfp inh 18.1%, CtBP-E1A blk -8.4, gsp agonist -19.2%, Menin MLL FP FL 0.6 and gsp antag 0.1%.
Screening CCC(CC)NC(=O)Cc1ccc(F)cc1 returned ClpP mod 0.2%, TRPV1 potentiator -16.0, Sfp inh 15.4%, CtBP-E1A blk 9.6, gsp agonist -37.4%[inhibitor], Menin MLL FP FL 2.1 and gsp antag 6.1%.
For Cc1cc(Cl)c(S(=O)(=O)Nc2ccc(S(=O)(=O)N3CCOCC3)cc2)cc1OCC(N)=O the results were ClpP mod 0.3%, TRPV1 potentiator 4.8, Sfp inh -13.5%, CtBP-E1A blk 8.2, gsp agonist inconclusive, Menin MLL FP FL 3.3 and gsp antag 10.8%.
COc1ccc(/C=C2\COc3ccccc3C2=O)c(OC)c1 was read as TRPV1 potentiator 20.8, Sfp inh -2.4%, CtBP-E1A blk -1.9, gsp agonist -11.3%, Menin MLL FP FL -1.5 and gsp antag -0.7%.
For O=C(Nc1ccc(Br)cc1)N1CCCCCC1 the results were ClpP mod 1.8%, TRPV1 potentiator -8.4, Sfp inh 0.5%, CtBP-E1A blk 1.3, gsp agonist 1.4%, Menin MLL FP FL -6.7 and gsp antag -2.2%.
COc1ccccc1Nc1ncc(C(C)=O)c(C)n1 was read as ClpP mod 0.2%, TRPV1 potentiator -1.5, Sfp inh -6.5%, CtBP-E1A blk -1.8, gsp agonist 0.0%, Menin MLL FP FL 3.7 and gsp antag 4.1%.
For CN(CCc1ccccn1)C(=O)c1ccc(OC(F)(F)F)cc1 the results were TRPV1 potentiator -4.7, Sfp inh -8.8%, CtBP-E1A blk -16.5, gsp agonist 5.9%, Menin MLL FP FL 48.4[activator] and gsp antag 13.4%.
For NC(=O)c1nsc(C(=O)N(c2cccc(F)c2)C(C(=O)NCc2ccccc2)c2ccc(O)cc2)c1N (stereo not given) the results were ClpP mod -1.4%, TRPV1 potentiator 8.7, Sfp inh -7.7%, CtBP-E1A blk -1.6, gsp agonist -9.3%[15.4 µM], Menin MLL FP FL -1.4 and gsp antag -16.2%.
For CCN1CCN(CCCNC(=O)c2ccc(NC(=O)C3=C(C)OCCS3)cc2)CC1 the results were ClpP mod 0.6%, TRPV1 potentiator -10.7, Sfp inh 15.1%, CtBP-E1A blk 6.4, gsp agonist -2.2% and gsp antag 6.6%.
`O=C(Nc1cccnc1)C1=NN(C2CCS(=O)(=O)C2)C(=O)CC1` (stereo not given) gave ClpP mod -0.3%, TRPV1 potentiator 1.6, Sfp inh 22.4%, gsp agonist -49.9%[inhibitor], Menin MLL FP FL 5.6 and gsp antag 4.7%.
Screening CCOC(=O)c1sc2nc[nH]c(=O)c2c1C returned ClpP mod 31.6µM*, TRPV1 potentiator 1.3, Sfp inh 21.1%, CtBP-E1A blk -16.8, gsp agonist -1.2%, Menin MLL FP FL 1.2 and gsp antag -1.0%.
Cc1cccc(N=C2C(=O)Nc3c(Cl)cccc32)c1 was read as ClpP mod 151.5%, TRPV1 potentiator 1.0, Sfp inh 2.5%, gsp agonist -17.0%, Menin MLL FP FL -2.6 and gsp antag 8.9%.
Screening O=C(NCc1ccco1)C1Cc2cc(Cl)ccc2O1 (stereo not given) returned TRPV1 potentiator -5.1, Sfp inh 4.6%, CtBP-E1A blk 1.6, gsp agonist -6.0%[15.4 µM], Menin MLL FP FL -0.5 and gsp antag 8.0%.
CNC(=O)COC(=O)c1ccccc1Nc1ccccc1 was read as ClpP mod -1.0%, TRPV1 potentiator -10.5, Sfp inh 4.2%, CtBP-E1A blk -0.1, gsp agonist -25.1%[15.4 µM], Menin MLL FP FL -2.2 and gsp antag 10.4%.
COc1cccc(Cn2c(=O)sc3ccccc3c2=O)c1 was read as TRPV1 potentiator 12.2, Sfp inh -1.7%, CtBP-E1A blk 50.0, gsp agonist 8.6%, Menin MLL FP FL 4.6 and gsp antag -1.7%.
`CN(CCO)c1ccc(C=NNc2ccc([N+](=O)[O-])cc2S(=O)(=O)Nc2ccccc2C(=O)O)cc1` gave ClpP mod -5.3%, CtBP-E1A blk -12.9, gsp agonist -9.5%[15.4 µM] and gsp antag -15.5%.
Screening Cc1ccc(CN2C(=O)CCC2C(=O)NCCN2CCN(c3cccc(Cl)c3)CC2)cc1 (stereo not given) returned TRPV1 potentiator -3.4, Sfp inh 6.0%, CtBP-E1A blk 1.0, gsp agonist 11.3%[15.4 µM], Menin MLL FP FL 3.0 and gsp antag -3.1%.
Screening Cc1nnc(SCCn2c(N3CCCCCC3)nc3c2c(=O)[nH]c(=O)n3C)s1 returned ClpP mod 0.5%, TRPV1 potentiator 8.2, Sfp inh -8.2%, CtBP-E1A blk 3.3, gsp agonist 23.9%, Menin MLL FP FL -0.2 and gsp antag -4.0%.
CC(=O)c1ccccc1OCc1ccc(C(=O)c2ccccc2)cc1 was read as ClpP mod 0.8%, TRPV1 potentiator 3.8, Sfp inh -11.0%, gsp agonist inconclusive, Menin MLL FP FL -4.3 and gsp antag inconclusive.
`CCCCN(C(=O)c1ccc2c(c1)NC(=O)CS2)c1ccccc1` gave ClpP mod 1.7%, TRPV1 potentiator -6.7, CtBP-E1A blk -1.0, gsp agonist 2.7% and gsp antag inconclusive.
Screening COc1ccc(CN2C(=O)c3ccccc3C2=O)cc1C(=O)O returned ClpP mod -0.5%, TRPV1 potentiator inconclusive, Sfp inh 7.0%, gsp agonist inconclusive, Menin MLL FP FL -1.1 and gsp antag -1.2%.
Screening CC(C)(C)C(=O)c1cn(CC(=O)NCc2ccc3c(c2)OCO3)c2ccccc12 returned ClpP mod 0.8%, TRPV1 potentiator -3.4, Sfp inh 10.2%, CtBP-E1A blk -2.4, gsp agonist -29.1%, Menin MLL FP FL 1.1 and gsp antag -20.7%.
For CC(C)(Oc1ccc(Cl)cc1)C(=O)OCc1nc2ccsc2c(=O)[nH]1 the results were ClpP mod 0.3%, TRPV1 potentiator -1.5, CtBP-E1A blk 4.1, gsp agonist -3.5% and gsp antag 3.2%.
`CCN(c1ccccc1)S(=O)(=O)c1ccc(NC(=O)C(C)(C)C)cc1` gave ClpP mod 0.5%, TRPV1 potentiator -1.2, Sfp inh 16.2%, CtBP-E1A blk 5.9, gsp agonist -3.6%, Menin MLL FP FL 2.7 and gsp antag 1.9%.
For COc1cccc2c1C(=O)c1c(O)c3c(c(O)c1C2=O)CC(O)(C(C)=O)CC3OC1CC(N(C)C)C(O)C(C)O1 (stereo not given) the results were ClpP mod -2.9%, CtBP-E1A blk inconclusive, gsp agonist inconclusive and gsp antag -15.8%.
For Cc1noc(C)c1C(=O)Nc1nc(-c2cc(F)ccc2F)cs1 the results were TRPV1 potentiator 2.0, CtBP-E1A blk -0.9, gsp agonist 10.5%[15.4 µM] and gsp antag inconclusive.
CCOC(=O)C1CSC(CC(=O)Nc2ccc(OC(F)(F)F)cc2)C(=O)N1 (stereo not given) was read as TRPV1 potentiator -5.0, Sfp inh 9.8%, CtBP-E1A blk 5.4, gsp agonist 7.2%, Menin MLL FP FL 1.4 and gsp antag 2.2%.
For O=C(NCc1ccccc1)C1=C[C@@H](C2CCCCC2)C[C@@H](OCc2ccc(CO)cc2)O1 the results were ClpP mod -9.5%, TRPV1 potentiator 7.1, Sfp inh -5.7%, CtBP-E1A blk -3.6, Menin MLL FP FL -4.6 and gsp antag -23.4%.
Screening CCOC(=O)CC(NC(=O)CCc1c(C)nc2ncnn2c1C)c1ccc(OC(C)C)cc1 (stereo not given) returned ClpP mod -3.7%, TRPV1 potentiator 1.4, Sfp inh 15.4%, CtBP-E1A blk 3.9, gsp agonist inconclusive, Menin MLL FP FL 1.8 and gsp antag 9.1%.
Screening Cc1c(NS(=O)(=O)c2cccs2)cccc1-c1nc2cccnc2s1 returned ClpP mod 4.9%, TRPV1 potentiator 17.2, Sfp inh 4.1%, gsp agonist -10.7%, Menin MLL FP FL 3.7 and gsp antag -7.2%.
COc1ccccc1NS(=O)(=O)c1ccc(C)c(NC(=O)NC2CCCCC2)c1 was read as ClpP mod -1.5%, TRPV1 potentiator 10.6, Sfp inh 6.0%, CtBP-E1A blk -15.5, gsp agonist -9.3%[15.4 µM], Menin MLL FP FL 2.6 and gsp antag inconclusive.
For O=C(COC(=O)c1ccccc1Oc1ccccc1)NC1CC1 the results were ClpP mod 0.4%, TRPV1 potentiator -2.2, Sfp inh 15.2%, CtBP-E1A blk -5.0, gsp agonist -41.1%[inhibitor], Menin MLL FP FL -0.8 and gsp antag -2.3%.
Cc1ccc(-c2nc3ncccc3o2)cc1NC(=O)c1cc2ccccc2o1 was read as ClpP mod 75.9%, TRPV1 potentiator 13.5, Sfp inh inconclusive, CtBP-E1A blk 1.4, gsp agonist -43.1%[inhibitor], Menin MLL FP FL -2.0 and gsp antag -19.7%.
O=Cc1ccc(OC2OCCOC2Oc2ccc(C=O)cc2)cc1 (stereo not given) was read as ClpP mod -0.3%, TRPV1 potentiator -2.2, Sfp inh 13.1%, CtBP-E1A blk -14.4, gsp agonist -20.5%[15.4 µM], Menin MLL FP FL 5.3 and gsp antag 2.1%.
COc1cccc(Nc2nc(-c3sc(N)nc3C)cs2)c1 was read as ClpP mod -0.3%, TRPV1 potentiator 4.7, Sfp inh -9.7%, CtBP-E1A blk -72.0*, gsp agonist -36.9%[inhibitor], Menin MLL FP FL 12.2 and gsp antag 0.5%.
For COc1ccc(Cc2nnc(N/N=C/c3ccc(Br)cc3)[nH]c2=O)cc1OC the results were ClpP mod -1.1%, TRPV1 potentiator 16.0, Sfp inh 6.3%, CtBP-E1A blk 3.7, gsp agonist -28.3%, Menin MLL FP FL 0.9 and gsp antag -1.4%.
For Cc1ccccc1NC(=O)COc1nsnc1N1CCOCC1 the results were ClpP mod 1.6%, TRPV1 potentiator 3.0, Sfp inh 9.9%, CtBP-E1A blk 7.1, gsp agonist 1.4%, Menin MLL FP FL 4.4 and gsp antag -18.7%.
Cc1cc(C)c2c(C(C)(C)C)nn(-c3ccccc3)c2n1 was read as ClpP mod inconclusive, TRPV1 potentiator 14.7, Sfp inh -2.6%, gsp agonist 4.1%, Menin MLL FP FL 3.5 and gsp antag -2.6%.
CCN(CC)c1ccc(C2C3CCCCC3(O)CCN2C(=O)c2cccs2)cc1 (stereo not given) was read as ClpP mod -1.8%, TRPV1 potentiator -5.9, Sfp inh -13.3%, CtBP-E1A blk -22.8, gsp agonist 0.7%, Menin MLL FP FL 1.5 and gsp antag -9.0%.
